Source: PubChem (Johns Hopkins Ion Channel Center)
KCNQ2 enhance = potentiators of rat KCNQ2 potassium channel. B-score at 10 µM. hit rate 0.54% among 310,000. CHO-K1 KCNQ2, FluxOR thallium flux fluorescence; hits give high values. AID 2239;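 active = fluorescence ratio B-score at least 3 SD of library B-scores, with initial fluorescence B-score within 3 SD, cut at about 5.3 in these data; same plate scores as AID 2156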;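 note: B-score of peak minus minimum over baseline fluorescence ratio after K+ and Tl+ stimulus; positive B-score means potentiation of KCNQ2 with more thallium influx and brighter signal; only the inactives scoring about 0 or higher are listed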
Target sequence (O88943 whole entry, looked up): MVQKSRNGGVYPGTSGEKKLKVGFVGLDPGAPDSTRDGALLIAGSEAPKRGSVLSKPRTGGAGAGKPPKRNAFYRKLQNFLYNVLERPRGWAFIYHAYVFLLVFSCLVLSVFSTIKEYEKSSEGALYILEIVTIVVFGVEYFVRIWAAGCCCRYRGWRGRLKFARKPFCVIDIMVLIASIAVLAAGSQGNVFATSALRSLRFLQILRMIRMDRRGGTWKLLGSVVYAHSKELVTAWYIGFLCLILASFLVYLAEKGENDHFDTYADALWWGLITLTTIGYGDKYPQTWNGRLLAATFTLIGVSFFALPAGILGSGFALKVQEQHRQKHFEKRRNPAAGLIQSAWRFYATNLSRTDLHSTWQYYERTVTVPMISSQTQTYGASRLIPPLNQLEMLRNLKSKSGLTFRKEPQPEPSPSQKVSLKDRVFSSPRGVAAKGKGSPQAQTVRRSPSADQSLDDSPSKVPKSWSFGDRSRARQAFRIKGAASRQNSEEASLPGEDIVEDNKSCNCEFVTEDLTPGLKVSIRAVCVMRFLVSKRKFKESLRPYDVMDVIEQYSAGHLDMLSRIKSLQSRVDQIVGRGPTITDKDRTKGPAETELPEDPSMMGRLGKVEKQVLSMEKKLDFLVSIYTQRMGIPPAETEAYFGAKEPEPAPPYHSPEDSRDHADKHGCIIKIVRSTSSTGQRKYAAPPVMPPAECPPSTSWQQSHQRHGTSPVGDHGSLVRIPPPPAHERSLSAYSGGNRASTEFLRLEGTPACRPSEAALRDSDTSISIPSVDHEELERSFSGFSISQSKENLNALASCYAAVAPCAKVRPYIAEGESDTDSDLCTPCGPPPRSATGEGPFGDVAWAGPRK
KCNQ2 enhance baseline = recorded beside KCNQ2 enhance, whose call it bears; B-score; compound at 10 µM; measured here: initial fluorescence intensity artifact check;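 brightness before thallium and not channel activity; 0 = typical well and far values either way flag optical interference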
Numbers without * were called inactive.

SMILES	KCNQ2 enhance	KCNQ2 enhance baseline
Cc1cc(C)n2nc(SCC3COc4ccccc4O3)nc2n1 (stereo unspecified)	0.92	-0.37
O=C(Nc1cccc(NC(=O)C2C3CC4OC(=O)C2C4C3)c1)c1ccccc1 (stereo unspecified)	0.35	1.55
COc1ccccc1OCC(=O)Nc1ccc(S(=O)(=O)Nc2onc(C)c2C)cc1	1.38	0.49
CCCc1cc2c(=O)c(-c3ccccn3)coc2cc1OC	0.54	-0.13
Cn1c(N)c(C(=O)CSc2nc(N)cc(N)n2)c(=O)n(C)c1=O	0.04	0.79
CC(C)(C)c1ccc(-c2nc3[nH]c(=O)cc(NC(=O)c4ccco4)n3n2)cc1	1.39	-0.76
COC(CNC(=O)Cn1ncc2ccsc2c1=O)OC	0.07	0.39
O=C(Nc1ccc2c(c1)N(Cc1ccccc1)C(=O)c1ccccc1S2)NC1CC1	0.83	-0.7
COc1ccc(-c2nnc(SCCC(=O)O)n2C)cc1OC	0.07	0.87
CC(=O)Nc1cccc(NC(=O)COc2ccc3c(c2)OCO3)c1	1.65	2.48
CCCC(C)C(=O)N(Cc1ccccc1)c1ccccn1 (stereo unspecified)	1.16	-0.77
O=C(CN1CCC(C(=O)c2ccc3c(c2)OCCO3)CC1)NC1CCCC1	0.05	-0.82
CCOC(=O)C1=C(C)N(C)C(=O)C1CC(=O)O (stereo unspecified)	0.95	-0.58
O=C(CN1CCN(Cc2ccccc2)CC1)N/N=C\C=C/c1ccco1	1.31	-0.07
CC(C)(C)c1ccc(OCCC(=O)OCC(=O)Nc2ccc(N3CCOCC3)cc2)cc1	5.55*	-2.95*
Cc1nc(NN)nc(NCc2ccccc2)n1	0.84	1.26
CC1CCN(CCNC(=O)c2ccc(NC(=O)C3CCCO3)cc2)CC1 (stereo unspecified)	0.65	0.67
COC(=O)c1c(NC(=O)COC(=O)c2ccc(O)cc2)sc2c1CCCCC2	0.18	-0.05
CNC(=O)OC(C)CNS(=O)(=O)c1ccc(C)cc1 (stereo unspecified)	1.4	-2.1
CC(=O)Nc1ccc2c(c1)C(=O)c1ccccc1C2=O	1.53	0.41
CC(=O)Oc1ccc(C(=O)O)c(OC(C)=O)c1	0.17	0
O=C(CCOc1ccccc1)Nc1ccnn1C1CCN(Cc2ccc(CO)o2)CC1	1	-2.04
CCCCn1nnnc1NCc1ccc(OC)c(OC)c1	0.71	0.08
COc1ccc(S(=O)(=O)N2CCN(C(=O)C3CCCCC3)CC2)cc1	0.58	1.51

An excerpt from above in order of molar mass, low to high.
SMILES	KCNQ2 enhance	KCNQ2 enhance baseline
Cc1nc(NN)nc(NCc2ccccc2)n1	0.84	1.26
CC(=O)Oc1ccc(C(=O)O)c(OC(C)=O)c1	0.17	0
CC(=O)Nc1ccc2c(c1)C(=O)c1ccccc1C2=O	1.53	0.41
CC1CCN(CCNC(=O)c2ccc(NC(=O)C3CCCO3)cc2)CC1 (stereo unspecified)	0.65	0.67
COc1ccc(S(=O)(=O)N2CCN(C(=O)C3CCCCC3)CC2)cc1	0.58	1.51
COC(=O)c1c(NC(=O)COC(=O)c2ccc(O)cc2)sc2c1CCCCC2	0.18	-0.05
O=C(CCOc1ccccc1)Nc1ccnn1C1CCN(Cc2ccc(CO)o2)CC1	1	-2.04

Next section:
SMILES	KCNQ2 enhance	KCNQ2 enhance baseline
Cn1cc(/C=C(\C(=O)O)C(C(=O)O)=C2CCCCC2)c2ccccc21	0.14	-0.3
CSc1ccc(CNCCN2CCOCC2)cc1	2.18	-1.48
COCCNc1ccc(-c2nn(C)c(=O)c3ccccc23)cc1[N+](=O)[O-]	1.29	-0.76
Cc1ccccc1OCc1csc(N)n1	1.1	0.06
CCCNC(=S)N1CCC(NC(=O)C23CC4CC(CC(C4)C2)C3)CC1	1.71	-3.56
COc1ccc([N+](=O)[O-])cc1NC(=O)CSCc1ccccc1	1.56	0.04
Cc1cccc(C)c1NC(=O)CSc1nnc(NC(=O)CN2CCOCC2)s1	0.54	0.15
COc1cccc(CN2CC(C(=O)NCCN3CCOC3=O)CCC2=O)c1 (stereo unspecified)	0.05	-0.06
Cc1ccc(C(=O)COC(=O)CCc2ccc(S(=O)(=O)N3CCCCC3)cc2)cc1	0.11	-0.21
COc1ccc(CCNC(=O)C(NS(=O)(=O)c2cccc3nsnc23)C(C)C)cc1OC (stereo unspecified)	0.28	1.51
CCc1nnc(N/N=C/c2ccc(O)c(OC)c2)n1N	0.64	0.2
O=C(Nc1ccc(Cl)cn1)Nc1cccs1	0.1	-0.66
CC(C)c1nn(-c2cc(C(F)(F)F)ccn2)c(=O)o1	0.14	0.91
CC1(C)CCC(=O)N2CC[C@H]3C[C@H](OC(=O)Nc4ccccc4)C[C@@H]1[C@H]32	0.62	0.9
O=C(N/N=C/c1ccccc1OC(=O)c1ccc2c(c1)OCO2)c1cccc(F)c1	0.31	1.12
COc1cc2c(cc1OC)C(c1ccc([N+](=O)[O-])cc1)NCC2 (stereo unspecified)	1.15	-0.18
C=CCNC(=O)c1ccc(C2SCC(=O)N2Cc2ccccc2)cc1 (stereo unspecified)	0.04	-0.63
CCC[N+](C)(C)C(C)C(OC(C)=O)c1ccccc1 (stereo unspecified)	1.42	-0.77
O=C(CCC1CCCCC1)NNC(=O)NC12CC3CC(CC(C3)C1)C2	9.28*	-0.01*
c1ccc(Cn2nnc3c(N4CCC5(CC4)OCCO5)ncnc32)cc1	0.14	-1.39
CC(C)(C)C(=O)COC(=O)c1ccc(O)cc1	2.44	-2
O=C(NC1CCCCC1)C1CCN(C(=O)NCc2ccccc2)CC1	1.03	-0.1
COc1cccc(CNC(=O)CCCCCNC(=O)N2CCn3c2nc2ccccc23)c1	1.53	-1.81
Cc1ccc(C(=O)C=CNNC(=O)c2ccccc2)cc1	4.08	-0.32
O=C(NCCN1C(=O)S/C(=C\c2ccc(Cl)c(Cl)c2)C1=O)c1cnccn1	0.01	-1.81
CCN(CC)CCN(C(=O)c1ccc(C(=O)c2ccccc2)cc1)c1nc2ccc(OC)cc2s1	1.2	-1.02
NNC(=O)c1sc(-c2ccccc2)cc1N	0.6	-0.84
Cc1cccc(NC(=O)C[n+]2ccccc2)c1	0.1	0.27
Cc1ccc(NC(=O)NCc2c(C)nn(C)c2C)cc1Cl	1.62	1.79
O=C(CSc1nnc(COc2ccc(F)cc2)o1)N1CCCCC1	0.66	-0.08
CCCCOC(=O)Nc1ccc(C(N)=O)cc1	0.7	-2.36
COC(=O)c1sc(-c2ccccc2)cc1NC(=O)c1ccc(OC)cc1	0.38	0.72
C[C@H]1CCC[C@@]2(O[C@H](CCO)C[C@@H](O)[C@@H]2O)O1	0.63	-0.51
O=C(c1ccc(=O)[nH]c1)N1CCN(S(=O)(=O)c2ccccc2)CC1	1.13	0.48
CCc1[nH]nc(C(=O)N2CCCC(N3CCN(c4ccccc4C)CC3)C2)c1C (stereo unspecified)	2.65	-2.63
COc1ccc(-c2noc(CCC(=O)NCCc3cccc(C)c3)n2)cc1	1.04	1.35

Taken from above.
For KCNQ2 enhance baseline, Cc1cccc(NC(=O)C[n+]2ccccc2)c1 reads 0.27
For KCNQ2 enhance, CCc1[nH]nc(C(=O)N2CCCC(N3CCN(c4ccccc4C)CC3)C2)c1C (stereo unspecified) reads 2.65
For KCNQ2 enhance baseline, COC(=O)c1sc(-c2ccccc2)cc1NC(=O)c1ccc(OC)cc1 reads 0.72
For KCNQ2 enhance, O=C(NCCN1C(=O)S/C(=C\c2ccc(Cl)c(Cl)c2)C1=O)c1cnccn1 reads 0.01
For KCNQ2 enhance, Cc1ccc(NC(=O)NCc2c(C)nn(C)c2C)cc1Cl reads 1.62

(more compounds)
SMILES	KCNQ2 enhance	KCNQ2 enhance baseline
CC(/C=C/c1ccccc1)=N\NC(=O)Cn1nc(C)cc1C	1.08	-0.62
COCCNC(=O)c1onc(CSc2ccccc2F)c1C(=O)O	0.99	2.24
Cc1nc([N+](=O)[O-])c(N2CCOCC2)n1Cc1ccccc1	0.78	-0.48
O=C(Cc1c(O)c2ccccc2[nH]c1=O)NCc1cccc(F)c1	1.14	0.92
O=C(Nc1ccc(Cl)cc1)NN1CC(=O)N(c2cccc(C(F)(F)F)c2)CC1=O	0.89	0.04
COc1cc(/C=C(\C#N)C(=O)N2CCCCC2)ccc1O	1	0.13
O=C(CCN1C(=O)/C(=C/c2ccccc2Cl)SC1=S)NN1CCOCC1	0.7	1.33
CCOc1ccccc1OCC(=O)OCC(=O)Nc1ncc(Cl)cc1Cl	0.01	0.32
Cc1ccccc1NC(=O)c1cccc(S(=O)(=O)N2CCCCC2)c1	0.39	-0.48
Cc1[nH]nc2ncc(C(=O)c3cc(F)ccc3O)cc12	0.2	0.01
NC(=O)CC(NC(=O)c1ccccc1)c1ccc(NC2CCC2)c([N+](=O)[O-])c1 (stereo unspecified)	0.72	-0.19
Cc1cc(C(=O)O)ccc1-n1c(C)cc(/C=C2\SC(=O)NC2=O)c1C	1.69	0.33
CC(C(=O)N(C)C1CCS(=O)(=O)C1)N1C(=O)/C(=C/c2ccc(F)cc2)SC1=S (stereo unspecified)	0.57	-0.05
O=C(Cc1c(F)cccc1Cl)N1CCCC1	0.04	0.84
O=C(Cc1ccc(F)cc1)OCC(=O)N1CCN(S(=O)(=O)c2ccc(Cl)cc2)CC1	0.02	-0.01
CC1CCCCN1C(=O)C12CCC(C)(/C(=N/O)C1)C2(C)C (stereo unspecified)	0.05	0.04
O=C(NCc1ccc2c(c1)OCO2)c1ccc(Cl)s1	7.38*	1.7*
Cc1ccc(S(=O)(=O)N2CCCCC2C)cc1[N+](=O)[O-] (stereo unspecified)	1.41	-0.11
CC(C)(C)c1nnc(NC(=O)C2CC(=O)N(CCc3ccc(F)cc3)C2)s1 (stereo unspecified)	0.97	-0.94
CCOc1ccc(N2C(=O)CNC2=S)cc1	0.61	-0.97
CN1C[N+]([O-])=C(c2ccccc2)C1(C)C	0.66	-0.04
O=C(Nc1ccccc1Cl)Nc1ccnn1C1CCN(C(=O)c2cscn2)CC1	0.59	-1.5
CCOC(=O)c1cnn(-c2nc(-c3ccccc3)nc3c2COC(C)(C)C3)c1N	1.58	-1.45
CCOC(=O)N1CCC(NC(=O)c2cc(C(=O)Nc3ccc(OCC)cc3)ccc2CO)CC1	0.19	-1.24
COC(=O)CSc1nnc(-c2ccc(S(=O)(=O)NCc3ccccc3Cl)cc2)o1	0.81	0.01
O=C(O)c1ccc(NC(=S)NC(=O)c2ccc(-c3ccc(Br)cc3)o2)cc1	0.81	-1.59
Cc1cc(Nc2ccc([N+](=O)[O-])cc2)nc2ccccc12	1.25	0.86
COc1ccc2c(c1)c(C(=O)N/N=C/c1ccc(OC)c(OC)c1)c(C)n2C	0.99	-1.74
COCC(=O)NCc1nc2ccccc2[nH]1	0.87	2.12
CCOc1cc(/C=N/NC(=O)C(=O)N2CCCC2)ccc1O	1.2	-0.13
CCCOC(=O)Nc1cccc(C(C)=O)c1	0.48	1.3
COc1ccc(CC(=O)Nc2cc(C)ccn2)cc1OC	0.96	-0.21
Cc1cccc(C(=O)NNC(=O)c2ccccc2C)c1	0.96	-3.48
COc1ccc(C2C(C(=O)c3ccco3)=C(O)C(=O)N2c2nnc(C)s2)cc1OC (stereo unspecified)	0.33	0.33
COc1ccc(/C=C2\Sc3ccc(C(=O)NCC4CCCO4)cc3N(C)C2=O)cc1 (stereo unspecified)	0.32	-0.16
OC(CN1CCOCC1)Cn1c2c(c3ccccc31)CCCC2 (stereo unspecified)	0.01	-1.01
Cc1ccc(C)c(-n2c(Cc3cccs3)n[nH]c2=S)c1	1.35	-0.57
CCOC(=O)COc1ccc(CCNC(C)=O)cc1	1.04	0.61
CC(C)c1c(C(=O)N/N=C/c2cccs2)nnn1-c1nonc1N	1.03	0.16
COCC(=O)Nc1c(C(=O)Nc2ccc3c(c2)OCCO3)oc2ccccc12	0.24	0.01
Cc1cc(C)n(CC(O)Cn2cnc3c2c(=O)n(C)c(=O)n3C)n1 (stereo unspecified)	0.89	2.28
CCN(CC)CCN1C(=O)C(=O)/C(=C(/O)c2ccc(F)cc2)C1c1cccnc1 (stereo unspecified)	0.05	-0.55
CC(C)C(NC(=O)c1ccc2c(c1)OCCO2)c1nc2ccccc2[nH]1 (stereo unspecified)	1.72	-0.03
OCCc1c[nH]c2ccc(OCc3ccccc3)cc12	0.46	-1.56
CNS(=O)(=O)c1cc(NC(C)=O)c(C)cc1C	0.68	0.62
CCCOc1ccc(C(=O)CCC(=O)OCC(=O)N2CC(=O)Nc3ccccc32)cc1	0.68	-0.49
COc1ccc(/C=N/NC(=O)CN2CCN(Cc3ccccc3)CC2)cc1Br	0.32	-0.05
CN(C)c1nc(N)c([N+](=O)[O-])c(NCC2CCCO2)n1 (stereo unspecified)	0.88	-0.32
CCn1c(O)c(C=Nc2ccccc2)n(-c2ccccc2)c1=S	1.41	-0.86
CCCCn1c(NC(=O)c2ccc(F)cc2)c(C#N)c2nc3ccccc3nc21	5.67*	1.65*
CSc1nc2nc3c(cc2c(=O)n1-c1ccccc1)COC(C)(C)C3	0.74	-1.43
COc1ccc(OC)c(NC(=O)C(=O)NNC(=O)C23CC4CC(CC(C4)C2)C3)c1	8.67*	-0.55*
CS(=O)(=O)N(Cc1ccc(C(=O)NC2CCCCC2O)cc1)c1ccccc1 (stereo unspecified)	1.1	0.44
COC(=O)c1cc(NS(=O)(=O)c2ccc(C)c3ccccc23)ccc1N1CCOCC1	0.53	0.18
CCOc1ccc(CCNC(=O)C2CC(=O)N(CCc3ccccc3)C2)cc1OCC (stereo unspecified)	0.22	1.44
C=CCNC(=O)c1onc(CSc2ccccc2)c1C(=O)O	0.03	1.17
O=C(Nc1ccccc1C(=O)N1CCOCC1)C1CC(=O)N(c2ccc(F)cc2)C1 (stereo unspecified)	0.02	0.94
COc1ccc(N(CC(=O)NC2CCCCC2)C(=O)CCCC(=O)Nc2ccccn2)cc1	1.31	-0.69
COC(=O)c1cnn2c(C(F)(F)F)cc(-c3ccc(F)cc3)nc12	1.12	0.78

Not all compounds are listed, so the mix of outcomes need not match the whole.
